SmPrx2 inh – Schistosoma Mansoni Peroxiredoxins (Prx2); AID 448, 2006; S. mansoni Prx2 activity coupled to TGR/GSH (TGR is thioredoxin glutathione reductase), NADPH fluorescence loss, qHTS; some inactives read as strong as hits; 65,000 tested, 0.07% active; Potency, µM; active means full or partial inhibition curve with a strong effect at the top dose; inconclusive means weaker partial or single-point curve; inactive means no accepted curve; note: series up to 57 µM; many of its hits are not listed in these tables
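qHTS, coupled TGR/Prx2 format; 15 min compound preincubation at RT; reaction started with H2O2 (2.5 mM aliquot); kinetic NADPH fluorescence decrease, ex 365/em 450 nm.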
LT uptake inh – qHTS Assay for Anthrax Lethal Toxin Internalization; Cells, anthrax lethal toxin internalization, FRET ratio (460/530); Potency, µM (top dose mostly 40 µM), for inactives: top-dose activity change, negative = inhibition, actives largely listed as inhibitors; 70,000 tested, 0.67% active; AID 912, 2007; active = well fitted falling ratio curve with the 530 nm signal flat; inconclusive = other ratio curves, or a change in one channel alone; inactive = flat curves in the ratio and both channels; the % refers to the ratio; note: % is set by controls: 0 for no effect and ±100 for the full control effect; nearly all actives have a fitted effect of over 50% in size; tested in ME-180 cells; beta-lactamase reporter
The depositor's hits bear a star; ? = inconclusive; / = not tested or not shown; [ ] = another dose, or the depositor's remark. Potency is the fitted concentration of half-maximal effect.

SMILES	SmPrx2 inh	LT uptake inh
CCOc1ccc(-c2nc(C#N)c(N3CCOCC3)o2)cc1	>57	-13%
COc1cc(NS(=O)(=O)c2ccc(NC(=O)COc3ccc(C)cc3)cc2)nc(OC)n1	>57	-4%
COC(=O)C1=C(C)NC(=O)CC1c1cccc(OC)c1OC (stereo not given)	>57	-5%
Cc1ccc(C)c([C@@H]2NC(=O)c3ccccc3N2)c1	>57	-12%[8 µM]
COc1cc(NC(=O)c2ccc3c(c2)OCO3)ccc1NC(=O)C(C)C	>57	-3%
O=C(NC1CC2CCCC(C1)N2Cc1ccco1)NC12CC3CC(CC(C3)C1)C2 (stereo not given)	>57	0%
CN(CC(=O)NCc1cccs1)S(=O)(=O)c1cccc2nsnc12	>57	-14%
CCSc1ncnc2c(C#N)c3n(c12)CCCCC3	/	-8%
COc1ccc(CNC(=O)Cn2nc(C(F)(F)F)c3c2CCC3)cc1	>57	-5%
Nc1c(C(=O)NCc2ccccc2)nnn1Cc1cccc(Cl)c1	>57	-27%
O=c1c2ccccc2oc2nc3n(c(=O)c12)CCCS3	/	?
CCOC(=O)C(Oc1ccc(=O)n(-c2ccccc2)n1)C(C)=O (stereo not given)	/	-9%
Cc1c(NC(=O)C2Cc3ccccc3CN2C(=O)c2ccco2)c(=O)n(-c2ccccc2)n1C (stereo not given)	>57	2%
CN(Cc1ccccc1)C(=O)CCCn1c(=O)[nH]c2cc(Cl)ccc2c1=O	>57	9%
Cc1ccc(O)c(CNc2ccccn2)c1	>57	-8%
COc1ccccc1Nc1nc(N)nc(CN2CCN(Cc3ccccc3)CC2)n1	>57	/
O=C(Nc1ccccc1C(F)(F)F)c1cc(-c2ccc(O)cc2)on1	>57	-2%
CC(C)CCNC(=O)Cn1c(NCCC(C)C)nc2c1c(=O)n(C)c(=O)n2C	>57	-2%
COc1ccc(-n2c(C)nc3c(cnn3-c3ccc(Cl)cc3)c2=O)cc1	>57	7%
O=C(CSc1nnnn1-c1cccc2c1CCCC2)N1CCOCC1	>57	4%
C=CCN1C(=Nc2ccccc2)SC/C1=C\C(=O)OC	>57	-3%
CCCn1nc2ccccc2c1P(=O)(N1CCOCC1)N1CCOCC1	>57	6%
COc1cc(-c2nc(-c3ccncc3)no2)cc(OC)c1OC	>57	1%
CS(=O)(=O)N1CCC2(CCN(Cc3ccc(C#N)cc3)CC2)CC1	>57	0%
Cc1cccc(-n2nnc(C(=O)NCc3ccco3)c2N)c1	>57	3%

The list goes on; it opens with the 2 that closed the last part.
SMILES	SmPrx2 inh	LT uptake inh
CS(=O)(=O)N1CCC2(CCN(Cc3ccc(C#N)cc3)CC2)CC1	>57	0%
Cc1cccc(-n2nnc(C(=O)NCc3ccco3)c2N)c1	>57	3%
COc1ccc2cc(C(c3nnnn3CCc3ccccc3)N3CCC(O)CC3)c(=O)[nH]c2c1 (stereo not given)	>57	5%
O=C(CS(=O)(=O)c1cn(Cc2cccc(F)c2)c2ccccc12)N1CCOCC1	>57	3%
O[C@H](CN1CC1)[C@@H](O)CN1CC1	>57	-7%[8 µM]
COc1ccccc1C1C(C(N)=O)=C(C)Nc2ncnn21 (stereo not given)	>57	3%
Cc1cccc2cc(C(c3nnnn3Cc3ccc4c(c3)OCO4)N3CCCC3)c(=O)[nH]c12 (stereo not given)	>57	?
COc1ccc(-c2cc(C(F)(F)F)nc(SCCC(=O)N3CCN4CCCC4C3)n2)cc1 (stereo not given)	>57	-6%
O=c1[nH]c2cc(Cl)ccc2c(O)c1-c1ccc(Oc2ccccc2)cc1	>57	11%
O=C(CSc1nc2ccccc2c(=O)[nH]1)c1cccs1	/	1%
O=C(O)Cn1cc(C(=O)c2ccco2)c2ccccc21	>57	1%
COc1ccc(CCNC(=O)c2cnn3ccccc23)c(OC)c1OC	>57	0%
Cc1ccc(S(=O)(=O)N2CCN(c3ncnc4c3cnn4-c3ccccc3)CC2)cc1	>57	-12%
CCn1c(CNc2ccccc2Cl)nnc1SCCN1CCCCC1	>57	?
O=C(O)C1CCCN1c1ncccn1 (stereo not given)	>57	-3%
NS(=O)(=O)c1ccc(NS(=O)(=O)/C=C/c2ccccc2)cc1	/	7%
O=S1OCC2C(CO1)C1(Cl)C(Cl)=C(Cl)C2(Cl)C1(Cl)Cl (stereo not given)	/	?
Cc1cc(C)nc(SCc2nnc(SCC(=O)Nc3ccc(Cl)c(C(F)(F)F)c3)o2)n1	>57	-14%
CC(=O)c1cccc(NC(=O)CN(C2CCCCC2)S(C)(=O)=O)c1	>57	-24%
CCCCC(=O)Nc1ccc2c(c1)nc1n2CCOC1	>57	0%
CC(=O)N1CCN(c2ccccc2NC(=O)c2cc(Br)ccc2Cl)CC1	>57	/
Cn1c(C(=O)N2CCN(c3ccc(F)cc3)CC2)cc2c(=O)n(C)c3ccccc3c21	>57	-2%
Cc1nc(N2CCOCC2)c2nc(-c3ccccc3)n(CCN3CCCCC3)c2n1	/	-1%
CSC1=C(C#N)C(c2cccs2)CC(=O)N1C (stereo not given)	>57	-12%
COCCCn1c(CCC(=O)O)ccc1-c1ccc(F)cc1	/	-4%
COc1ccc2c(c1)OC1(C)CC2C(C(=O)c2ccccc2OC)C(=O)N1 (stereo not given)	>57	-4%
CSc1oc(-c2ccco2)nc1S(=O)(=O)c1ccc(F)cc1	>57	-2%

As a working copy, four of the compounds above:
SMILES	SmPrx2 inh	LT uptake inh
COc1ccc2cc(C(c3nnnn3CCc3ccccc3)N3CCC(O)CC3)c(=O)[nH]c2c1 (stereo not given)	>57	5%
O=C(CS(=O)(=O)c1cn(Cc2cccc(F)c2)c2ccccc12)N1CCOCC1	>57	3%
O[C@H](CN1CC1)[C@@H](O)CN1CC1	>57	-7%[8 µM]
COc1ccccc1C1C(C(N)=O)=C(C)Nc2ncnn21 (stereo not given)	>57	3%

2 entries picked at random from those above:
SMILES	SmPrx2 inh	LT uptake inh
O=C(O)Cn1cc(C(=O)c2ccco2)c2ccccc21	>57	1%
O[C@H](CN1CC1)[C@@H](O)CN1CC1	>57	-7%[8 µM]

(cont.)
SMILES	SmPrx2 inh	LT uptake inh
Nc1ccc(CCN2CCN(c3cccc(C(F)(F)F)c3)CC2)cc1	>57	3%
CCCCCN=C(C)c1c(O)c2ccccc2oc1=O	>57	-9%
COCCCNC(c1ccccc1)c1ccncc1 (stereo not given)	>57	-12%
O=C(CSc1nnc(CNc2ccc(Cl)cc2)n1Cc1ccccc1)NCc1ccco1	>57	-8%
CCCCOc1ccc(Cl)cc1CSc1nncn1N	>57	-7%
CCOC(=O)c1ncn2c1C(=O)OC2(C)C	>57	19%
CC(=O)NCCNc1nc(-c2ccccc2C)nc2ccccc12	>57	-3%
Cc1cc(C(=O)CN2C(=O)c3ccccc3C2=O)c(C)n1C1CC1	>57	-4%
C/C(CCN1CCCc2nc(C)c(C)cc21)=N\O[C@@H](C)CN1CCCCc2nc(C)c(C)cc21	/	-6%[8 µM]
CCn1c2ccccc2c2cc(C3C(C#N)=C(N)OC4=C3C(=O)CC(C)(C)C4)ccc21 (stereo not given)	>57	8%
CCOc1ccc(OCC)c(NS(=O)(=O)c2cccc3nsnc23)c1	>57	-23%
O=C(CC1Nc2ccccc2NC1=O)Nc1ccccc1 (stereo not given)	>57	?
c1ccc(Cc2nn3c(C4COc5ccccc5O4)nnc3s2)cc1 (stereo not given)	/	12%
c1ccc(NC(=NCc2ccco2)c2ccccc2)cc1	>57	-13%
COc1ccc(CNCCNC(=O)c2ccco2)c(OC)c1OC	>57	2%
CC(C)CC(=O)Nc1ccc2oc(-c3cccnc3)nc2c1	>57	0%
Cc1c(NC(=O)c2ccccc2NS(=O)(=O)c2ccc(F)cc2)c(=O)n(-c2ccccc2)n1C	>57	-2%
Cc1ccc(C)c(CSc2nnc([C@@H](N)C(C)C)o2)c1	>57	-1%
CCC(=O)c1ccc(OCCn2cncn2)cc1	>57	14%
Cc1cc(NC(=O)COc2ccccc2)n(-c2ccccc2)n1	>57	-20%
CCCn1c(-c2ccc(F)cc2)nc2c(NCC3CCN(C)CC3)nc(C)nc21	/	-10%
N[C@@H](C(=O)O)[C@@H]1C[C@H]1C(=O)O	>57	3%
COc1ccc(NC(=O)C(C)N(c2ccc(C)cc2)S(C)(=O)=O)c(OC)c1 (stereo not given)	>57	7%
CCOc1ccccc1CNC(=O)c1cc2occc2n1C	>57	-28%
Cc1nc2ccccc2c(=O)n1NCc1cc(Br)cs1	>57	22%

Next results follow.
SMILES	SmPrx2 inh	LT uptake inh
COc1ccc(C)cc1-n1nnnc1SCC(=O)Nc1cc(C)on1	>57	5%
CCN(Cc1ccccc1)S(=O)(=O)c1ccc2oc(C(=O)O)c(C)c2c1	>57	11%
CN(C)S(=O)(=O)c1cccc(C(=O)Nc2ccc(Cl)cn2)c1	>57	-6%
CCCC(=O)NCc1ccc2c(c1)cc(C)n2C	>57	-15%
c1cn(-c2cc(-c3ccc4c(c3)OCO4)ncn2)cn1	>57	5%
O=c1[nH][nH]c(=S)c(=O)[nH]1	>57	-9%[8 µM]
C/C(CC(O)(/C=N/O)c1ccccc1)=N\O (stereo not given)	>57	9%
CCOC(=O)C(C#N)c1ccccn1 (stereo not given)	>57	11%
COc1cc(C)c(N(C(C)=O)c2ccccc2)c(C)c1	/	4%
COc1ccc(-c2nnc3sc(CCN4C(=O)c5ccccc5C4=O)nn23)cc1	>57	-11%
O=C(Nc1nnc(C2CC2)o1)c1ccc(S(=O)(=O)N2CCCc3ccccc32)cc1	>57	19%
Nc1nc(-c2ccc(Cl)cc2)cc(C(F)(F)F)n1	>57	-19%
C/C(CCN1CCCCc2nc(C)c(C)cc21)=N\O[C@@H](C)c1cn([C@@H]2COC[C@@H]2O)nn1	/	16%[8 µM]
COCC(=O)O	/	10%
CCCCC(=O)NCCc1ccc(S(N)(=O)=O)cc1	/	-14%
CCCCOC(=O)c1ccc(NC(=O)CSCc2n[nH]c(=O)[nH]2)cc1	/	-6%
Cc1nn(CC(=O)NCCc2ccccc2)c(=O)c2ccccc12	>57	-5%
Cn1nnnc1SCC(=O)N1CCN(c2ccccc2)CC1	/	-4%
O=C(C1c2ccccc2C(=O)N2CCc3ccccc3C12)N1CCC2(CC1)OCCO2 (stereo not given)	>57	10%
OCc1csc(=Nc2ccccc2)n1-c1ccccc1	>57	-9%
O=C(O)c1ccc(NS(=O)(=O)c2cc(Cl)ccc2Cl)cc1O	>57	-9%
CCCn1c(SCC(=O)N2CCc3ccccc3C2)nc2c1c(=O)n(C)c(=O)n2C	>57	6%
COc1ccc(C(c2nnnn2C2CCCC2)N2CCC(C(N)=O)CC2)c(OC)c1 (stereo not given)	>57	-7%
CCCn1c(=S)[nH]c2cc(C(=O)NCC3CCCO3)ccc2c1=O (stereo not given)	>57	-3%
CC(c1ccco1)N(C(=O)CSc1ccc(Br)cc1)c1ccccn1 (stereo not given)	>57	-5%

Next results.
SMILES	SmPrx2 inh	LT uptake inh
CSc1ccc(C(=O)C(C)(C)N2CCOCC2)cc1	>57	4%
Cc1ccc(-c2c(C)n([O-])c3c([n+]2=O)CCC3)o1	>57	4%
N#Cc1ccccc1OCC(=O)OCC(=O)c1ccc2c(c1)NC(=O)CO2	>57	-2%
CCC(C)C(NC(=O)C1CCC(C)CC1)C(=O)NCc1cccnc1 (stereo not given)	>57	-10%
COc1cccc(C(=O)N2CCN(Cc3ccco3)CC2)c1OC	>57	8%
CC(=O)C(Sc1nc(NC(C)(C)C)nc(N(C)C)n1)C(C)=O	>57	0%
COc1cccc(NC(=O)N2CCOCC2)c1	/	-5%
C/C(N)=C(/C#N)C(=O)COC(=O)COc1ccc(Cl)cc1	>57	11%
Cc1ccccc1-c1nnc(SCC(=O)NC2CCCCC2)o1	>57	6%
COc1ccc(Br)cc1CNC(=O)C1CCN(S(=O)(=O)N2CCCC2)CC1	>57	9%
NC(=O)C1CCN(C2CC(=O)N(c3cccc(F)c3)C2=O)CC1 (stereo not given)	>57	-7%
O=c1[nH]c2ccccc2nc1C(F)(F)C(F)F	/	12%
COc1cc(Cl)cc(C2NC(=O)NC(C)=C2C(=O)NCc2ccccc2)c1O (stereo not given)	>57	-10%
Cc1c(C(=O)OCCOc2ccccc2)[nH]c2c1C(=O)CCC2	>57	?
CCOc1ccc(N(CC(=O)NC(C)CC)S(=O)(=O)c2c(C)noc2C)cc1 (stereo not given)	>57	-15%
O=C(CSc1nc(N2CCCCC2)nc(N2CCCCC2)n1)Nc1nccs1	>57	0%
CC1Cc2c(-c3ccccc3)nc3c(c2CO1)CN(CCOc1ccccc1)CC3 (stereo not given)	/	-33%[8 µM]
O=C(Nc1ccc(Nc2ccccc2)cc1)c1ccc(Br)o1	>57	13µM*
Cc1cc2cc(CNC(=O)Nc3ccccc3)ccc2n1C	>57	10%

Entries of single compounds, quoted from the list. Values in the order: SmPrx2 inh, LT uptake inh
CCOc1ccccc1CNC(=O)c1cc2occc2n1C as listed: >57, -28%
CN(CC(=O)NCc1cccs1)S(=O)(=O)c1cccc2nsnc12 as listed: >57, -14%
O=C(Nc1nnc(C2CC2)o1)c1ccc(S(=O)(=O)N2CCCc3ccccc32)cc1 as listed: >57, 19%

From PubChem

Only part of the results is shown, so the mix of outcomes need not match the whole.
